VACV Venus inh: inhibitors of vaccinia virus (Venus reporter); Vaccinia virus Venus reporter expression, fluorescence; Potency, µM (titrated, usually from 36.5 µM), for the others: at the highest dose activity change, negative = inhibition, most hits filed as inhibitors; hit rate 0.46% among 330,000; AID 720580; active means well fitted inhibition curve with a large enough effect; inconclusive means small, poorly fitted or top-dose-only effect; inactive means no such curve, though single readings can be large or run the other way; tested in A549 cells; further: nearly all actives have a fitted effect of over 30% in size; inactives centre near -10
VACV mCherry inh: inhibitors of vaccinia virus infection (mCherry reporter signal); Vaccinia virus mCherry reporter infection, fluorescence; about a quarter of the inactives have no number; Potency, µM (highest dose often 36.5 µM), without a hit: at the top dose activity change, negative = inhibition, hits mostly inhibitors; hit rate 0.63% among 310,000; active = well fitted inhibition curve with a large enough effect; inconclusive = small, poorly fitted or top-dose-only effect; inactive = no such curve, though single readings can be large or run the other way; tested in A549 cells; further: nearly all actives have a fitted effect of over 35% in size; inactives centre near -10
The depositor's hits bear a star; i = inactive; u = inconclusive; x = not tested or not shown. On the % scale 0 is the no-effect control and ±100 the full control effect; potency means the concentration at half of the fitted maximal effect.

A first look, 21 compounds:
SMILES | VACV Venus inh | VACV mCherry inh
Cc1cc2nc(/C(C#N)=C\c3ccc(-c4ccccc4C(=O)O)o3)[nH]c2cc1C | 6% | i
O=C(Nc1ccc(O)cc1)c1cc2ccccc2c(=O)s1 | -1% | -9%
CC(=O)c1c(O)c(C)c(O)c2c1OC1=CC(=O)C(C(C)=O)C(=O)[C@@]12C (stereo partly drawn) | 0% | -2%
CCN1C(=O)c2ccccc2S(=O)c2ccc(C(=O)N3CCN(c4ccccc4OC)CC3)cc21 (stereo not drawn) | -8% | -3%
CC1CCCCC1NS(=O)(=O)c1ccc(S(=O)(=O)N2CCCC2)cc1 (stereo not drawn) | -9% | -13%
COC(=O)c1ccccc1NC(=O)c1c(NC(=O)c2ccco2)sc2c1CCC(C(C)(C)C)C2 (stereo not drawn) | -21% | i
O=C(NCCCn1ccnc1)Nc1cccc2ccccc12 | 4% | x
COc1ccc(NC(=O)NCc2ccc3c(c2)OCO3)cc1 | -10% | i
FC(F)(F)c1cc(-c2ccccc2)nc(NCc2cccnc2)n1 | u | u
Cc1ncoc1C(=O)N1CCc2c([nH]c3ccccc23)C1C1CCCCC1 (stereo not drawn) | -18% | -24%
CCOC(=O)C1=C(CN2CCN(c3ccc(Cl)cc3)CC2)NC(=O)NC1c1ccc(F)cc1 (stereo not drawn) | u | u
C/C(=N\NC(=O)CC(C)C)c1ccc(N2CCCCC2)cc1 | u | i
CCSc1nnc(NC(=O)c2c(C)noc2C)s1 | -2% | -11%
O=C(COC(=O)c1cccc(S(=O)(=O)N2CCOCC2)c1)NC1CCCCC1 | -13% | -5%
Cc1cc(OCC(O)CN)ccc1Cl (stereo not drawn) | -10% | i
Cc1ccc(Cl)cc1NC(=O)C(NS(=O)(=O)c1ccc2c(c1)CCC(=O)N2)c1ccccc1 (stereo not drawn) | 0% | -4%
CCCN1CCN(CCCNC(=O)C2CCCN(c3nnc(-n4cccc4)s3)C2)CC1 (stereo not drawn) | -2% | -11%
COc1ccccc1-c1nnc(NC(=O)c2ccc(S(=O)(=O)N(C)CC3CCCO3)cc2)o1 (stereo not drawn) | -27% | -11%
CCCC(=O)Nc1ccc(Sc2ccc([N+](=O)[O-])cc2)cc1 | -28% | x
Cc1c(CN2CCCC(C(=O)c3cccc(Cl)c3)C2)c(=O)n(-c2ccccc2)n1C (stereo not drawn) | 0% | -2%
COc1ccc(C2NCCc3[nH]cnc32)cc1 (stereo not drawn) | -4% | -4%

This part in full, previewed entries included:
SMILES | VACV Venus inh | VACV mCherry inh
Cc1cc2nc(/C(C#N)=C\c3ccc(-c4ccccc4C(=O)O)o3)[nH]c2cc1C | 6% | i
O=C(Nc1ccc(O)cc1)c1cc2ccccc2c(=O)s1 | -1% | -9%
CC(=O)c1c(O)c(C)c(O)c2c1OC1=CC(=O)C(C(C)=O)C(=O)[C@@]12C (stereo partly drawn) | 0% | -2%
CCN1C(=O)c2ccccc2S(=O)c2ccc(C(=O)N3CCN(c4ccccc4OC)CC3)cc21 (stereo not drawn) | -8% | -3%
CC1CCCCC1NS(=O)(=O)c1ccc(S(=O)(=O)N2CCCC2)cc1 (stereo not drawn) | -9% | -13%
COC(=O)c1ccccc1NC(=O)c1c(NC(=O)c2ccco2)sc2c1CCC(C(C)(C)C)C2 (stereo not drawn) | -21% | i
O=C(NCCCn1ccnc1)Nc1cccc2ccccc12 | 4% | x
COc1ccc(NC(=O)NCc2ccc3c(c2)OCO3)cc1 | -10% | i
FC(F)(F)c1cc(-c2ccccc2)nc(NCc2cccnc2)n1 | u | u
Cc1ncoc1C(=O)N1CCc2c([nH]c3ccccc23)C1C1CCCCC1 (stereo not drawn) | -18% | -24%
CCOC(=O)C1=C(CN2CCN(c3ccc(Cl)cc3)CC2)NC(=O)NC1c1ccc(F)cc1 (stereo not drawn) | u | u
C/C(=N\NC(=O)CC(C)C)c1ccc(N2CCCCC2)cc1 | u | i
CCSc1nnc(NC(=O)c2c(C)noc2C)s1 | -2% | -11%
O=C(COC(=O)c1cccc(S(=O)(=O)N2CCOCC2)c1)NC1CCCCC1 | -13% | -5%
Cc1cc(OCC(O)CN)ccc1Cl (stereo not drawn) | -10% | i
Cc1ccc(Cl)cc1NC(=O)C(NS(=O)(=O)c1ccc2c(c1)CCC(=O)N2)c1ccccc1 (stereo not drawn) | 0% | -4%
CCCN1CCN(CCCNC(=O)C2CCCN(c3nnc(-n4cccc4)s3)C2)CC1 (stereo not drawn) | -2% | -11%
COc1ccccc1-c1nnc(NC(=O)c2ccc(S(=O)(=O)N(C)CC3CCCO3)cc2)o1 (stereo not drawn) | -27% | -11%
CCCC(=O)Nc1ccc(Sc2ccc([N+](=O)[O-])cc2)cc1 | -28% | x
Cc1c(CN2CCCC(C(=O)c3cccc(Cl)c3)C2)c(=O)n(-c2ccccc2)n1C (stereo not drawn) | 0% | -2%
COc1ccc(C2NCCc3[nH]cnc32)cc1 (stereo not drawn) | -4% | -4%
COc1cc(CN(CC2CCCO2)C(=O)c2ccc(F)cc2)cc(OC)c1OC (stereo not drawn) | 0% | 2%
COc1ccc(-c2c(C)oc3c(CN4CCN(C)CC4)c(O)ccc3c2=O)cc1 | -11% | -18%
CC(=O)Cn1nnc2sc3c(c2c1=O)CCC(C(C)(C)C)C3 (stereo not drawn) | -17% | -21%
CC(=O)NC(CC(C)C)C(=O)NC(=O)NCc1ccccc1 (stereo not drawn) | -4% | -12%
CC(=O)c1cccc(NC(=O)N2C[C@H]3C[C@@H](C2)c2cccc(=O)n2C3)c1 | -2% | 3%
O=C(CSc1nnc(Cn2nnc3ccccc32)o1)Nc1cccc(Cl)c1 | -10% | -14%
COc1ccc(OC)c(NC(=O)CSc2ccc3ccccc3c2)c1 | -27% | x
Cc1cc(NCCO)c2ccccc2n1 | -1% | i
CC12CN3CC(c4ccccc4)(CN(C1)C3c1ccc(O)cc1)C2=O (stereo not drawn) | 9% | 16%
COC(=O)CCC/C=C1/SCC(NC(=O)c2ccccc2)/C1=N/O (stereo not drawn) | -18% | i
Cc1ccc(-n2c(=O)c3c(C)c(C)sc3n(CC(=O)c3ccc(Cl)cc3)c2=O)cc1C | -9% | -7%
CC(C)Cc1ccc(S(=O)(=O)N2CCN(Cc3noc(CCC(=O)N4CCCCC4)n3)CC2)cc1 | -15% | -4%
COc1cc2oc(=O)cc(CN3CCN(c4ccccc4F)CC3)c2cc1Cl | -12% | i
CO/N=C/C(=N\Nc1ccc(OC)cc1)C(=O)c1ccc(F)cc1 | -6% | -2%
CC1(C)C2CCC1(C(=O)O)c1nc3ccccc3nc12 (stereo not drawn) | -2% | i
O=C(Nc1ccc([N+](=O)[O-])cc1)C1CC12CCC2 (stereo not drawn) | -10% | 0%
Cc1nc2nc[nH]n2c(=O)c1NC(=O)c1cccc(OCC(C)C)c1 | -19% | x
CC(C)C[C@H]1CNC(=S)N1C[C@H]1CCCN1C[C@H](Cc1ccc(O)cc1)N1C[C@H](Cc2ccc(O)cc2)N(CC2CCCCC2)C1=S | -25% | -18%
Cc1cccc(Nc2n[nH]c(=S)s2)c1C | -12% | -12%
CCc1ccc(C(=O)NNC(=O)OC)cc1 | -8% | -11%
CCOC(=O)c1ccc(COC(=O)c2cc3ccccc3oc2=O)o1 | -28% | x
O=C(Nc1ccccc1)C1=C[C@@H](c2ccccc2)C[C@@H](OCc2ccc(CO)cc2)O1 | -19% | -3%

Screening data from PubChem BioAssay.
